H5N1 antiviral – MDCK cell protection from H5N1 avian flu | cytopathic effect, luminescence, 72 h; stronger effect = higher value; no value below 0 was filed and about half of the inactive calls have no number; reference of the scale not given here | inhibition, % at 50 µM | 0.07% of 96,000 active; in the data active = inhibition above about 25%
Active calls of the source: *; i = inactive. Not all compounds are listed; the hit share may differ from the screen's.

SMILES	H5N1 antiviral
COc1ccc(NC(=O)C(=O)NNC(=O)c2cccs2)c(OC)c1	0.1
COc1cccc(C2=NOC(C(=O)N3CCN(Cc4ccccc4)CC3)C2)c1OC (configuration not stated)	i
Cc1ccc(/C=C/C(=O)c2c(C)cc(C)[nH]c2=O)cc1	35*
COc1ccccc1-c1nnc2sc(-c3cnccn3)nn12	0.2
COc1cc(C(=O)N2CCC(O)(c3ccccc3)CC2)cc(OC)c1OC	1.0
O=C(Nc1ccc2c(c1)OCO2)N1CCN(C(=O)C2CCCO2)CC1 (configuration not stated)	i
Cn1c(-c2ccc(F)cc2)cnc1NCc1cccc(F)c1	0.1
Cc1cccc(N2CCN(C(=O)Cc3cn(C)c4ccccc34)CC2)c1C	i
Cc1ccc(S(=O)(=O)N2CCN(C(C)C(=O)N3CCCc4ccccc43)CC2)cc1 (configuration not stated)	2.4
CCCOCCOC(=O)c1[nH]c2c(c1C)C(=O)CC(c1cc(OC)ccc1OC)C2 (configuration not stated)	i
Cc1ccc(C)c(N2C(=O)CS/C2=N\NC(=O)c2ccccc2Cl)c1	i
CC(=O)OCCc1c(C)nc2nc[nH]n2c1=O	0.2
CS(=O)(=O)N(CC(=O)N1CCCC1)c1cc(Cl)c(Cl)cc1Cl	i
N#CC1=C(C2CC2)CC(c2ccccc2)C(C#N)=C1N (configuration not stated)	i
COc1ccc(CNc2nc3nc(C)cc(C)n3n2)cc1	0.2
CS(=O)CCC(NS(=O)(=O)c1ccccc1)C(=O)O (configuration not stated)	i
CCc1ccc(-c2nc(CN3CCC(C(=O)N4CCN(c5ccccc5)CC4)CC3)c(C)o2)cc1	i
Cc1ccc(N2CCN(CCc3ccccc3)CC2)cc1	0.1
FC(F)(F)c1cc(-c2ccco2)nc(N2CCN(Cc3ccccc3)CC2)n1	i
Cc1ccccc1-n1ncc2c(SCC(=O)N3c4ccccc4CC3C)ncnc21 (configuration not stated)	i
CCOC(=O)CN(C(=O)CSc1nnc2c(n1)[nH]c1ccccc12)c1ccccc1	2.5
O=C1NC2(CCOc3ccccc32)C(=O)N1CC(=O)N(Cc1ccccc1)C1CCS(=O)(=O)C1 (configuration not stated)	i
CCOC(=O)CSc1nc(C)cc(=O)[nH]1	i
CC(Oc1cc(-c2ccccc2)cc2ccccc12)C(=O)N1CCOCC1 (configuration not stated)	0.4
CCOC(=O)C1CCN(C(=O)COc2ccc(Br)cc2)CC1	0.7
Next records:
SMILES	H5N1 antiviral
CCOc1ccc(C(=S)N2CCOCC2)cc1OCC	i
Cc1ccc(-c2noc(CCCC(=O)N3CCOCC3)n2)cc1	1.1
O=c1c2c(n3cnnc3n1-c1ccccc1)-c1ccccc1CC21CCCCC1	1.4
Cc1ccc(N2CCN(C(=O)c3ccccc3)CC2)c(C)c1	0.6
COc1ccc(NC(=O)C2CCN(c3cc(-c4ccccc4)nc4ncnn34)CC2)cc1OC	0.9
O=c1c(-c2ccc3c(c2)OCCO3)coc2cc(O)cc(O)c12	1.6
CCN(CC)C(=O)c1c(NC(=O)c2ccccc2)sc(C)c1C	0.7
O=C(CSCc1ccccc1)N1CCN(c2cccc(C(F)(F)F)c2)CC1	0.4
O=C(NCc1ccco1)C1CCCN(S(=O)(=O)c2ccccc2)C1 (configuration not stated)	i
Clc1cccc(CSc2nc3ccncc3[nH]2)c1	i
O=C(CSc1nc(Nc2ccccc2)nc(N2CCOCC2)n1)N1CCCC1	6.2
C#CC[N+](C)(C)C(C#Cc1ccccc1)CC=C (configuration not stated)	i
Cc1ccc(C23CC4CC(CC(C(=O)N5CCOCC5)(C4)C2)C3)cc1	0.7
CCc1nc2oc3cc(OC)ccc3c(=O)c2c(=O)n1Cc1ccccc1	0.8
CC(=O)c1cn(CC(=O)Nc2ccc(C)cc2)c2ccccc12	0.3
CC(=O)Nc1ccc(S(=O)(=O)N2CCN(Cc3ccncc3)CC2)cc1	2.4
O=C1CC(C(=O)Nc2ccc(C(=O)N3CCOCC3)cc2)C2(CCCCC2)O1 (configuration not stated)	i
Cc1ccc(-n2nnnc2-c2cnc(N3CCCC3)nc2C(F)(F)F)cc1	1.5
O=S(=O)(c1ccccc1C(F)(F)F)N1CCN(S(=O)(=O)c2ccccc2C(F)(F)F)CC1	0.7
Cc1ccc(S(=O)(=O)N2CCCC(C(=O)NCc3ccccn3)C2)cc1 (configuration not stated)	0.1
CCN(CC)C(=O)C1CCCN(c2ccc([N+](=O)[O-])cc2/C=N/NC(=O)c2cccc(Br)c2)C1 (configuration not stated)	i
Cc1nc2nc[nH]n2c(=O)c1NC(=O)CCc1ccccc1	i
CC1(C)CC(=O)C2=C(C1)N(c1ccc(F)cc1)C(=O)NC2(C(F)(F)F)C(F)(F)F	i
C=CCn1c(Cc2nc3ccccc3[nH]2)n[nH]c1=S	1.2
O=c1c2c3nc4ccccc4nc3n(CC3CCCO3)c2ncn1CCc1ccccc1 (configuration not stated)	0.2

A run of entries from the list above, for reference:
SMILES	H5N1 antiviral
Cc1ccc(N2CCN(C(=O)c3ccccc3)CC2)c(C)c1	0.6
COc1ccc(NC(=O)C2CCN(c3cc(-c4ccccc4)nc4ncnn34)CC2)cc1OC	0.9
O=c1c(-c2ccc3c(c2)OCCO3)coc2cc(O)cc(O)c12	1.6
CCN(CC)C(=O)c1c(NC(=O)c2ccccc2)sc(C)c1C	0.7
O=C(CSCc1ccccc1)N1CCN(c2cccc(C(F)(F)F)c2)CC1	0.4
O=C(NCc1ccco1)C1CCCN(S(=O)(=O)c2ccccc2)C1 (configuration not stated)	i
Clc1cccc(CSc2nc3ccncc3[nH]2)c1	i
O=C(CSc1nc(Nc2ccccc2)nc(N2CCOCC2)n1)N1CCCC1	6.2
C#CC[N+](C)(C)C(C#Cc1ccccc1)CC=C (configuration not stated)	i
Cc1ccc(C23CC4CC(CC(C(=O)N5CCOCC5)(C4)C2)C3)cc1	0.7
CCc1nc2oc3cc(OC)ccc3c(=O)c2c(=O)n1Cc1ccccc1	0.8
CC(=O)c1cn(CC(=O)Nc2ccc(C)cc2)c2ccccc12	0.3
CC(=O)Nc1ccc(S(=O)(=O)N2CCN(Cc3ccncc3)CC2)cc1	2.4
O=C1CC(C(=O)Nc2ccc(C(=O)N3CCOCC3)cc2)C2(CCCCC2)O1 (configuration not stated)	i
Cc1ccc(-n2nnnc2-c2cnc(N3CCCC3)nc2C(F)(F)F)cc1	1.5
O=S(=O)(c1ccccc1C(F)(F)F)N1CCN(S(=O)(=O)c2ccccc2C(F)(F)F)CC1	0.7
Cc1ccc(S(=O)(=O)N2CCCC(C(=O)NCc3ccccn3)C2)cc1 (configuration not stated)	0.1
CCN(CC)C(=O)C1CCCN(c2ccc([N+](=O)[O-])cc2/C=N/NC(=O)c2cccc(Br)c2)C1 (configuration not stated)	i
Cc1nc2nc[nH]n2c(=O)c1NC(=O)CCc1ccccc1	i
CC1(C)CC(=O)C2=C(C1)N(c1ccc(F)cc1)C(=O)NC2(C(F)(F)F)C(F)(F)F	i
C=CCn1c(Cc2nc3ccccc3[nH]2)n[nH]c1=S	1.2
O=c1c2c3nc4ccccc4nc3n(CC3CCCO3)c2ncn1CCc1ccccc1 (configuration not stated)	0.2

Following part
SMILES	H5N1 antiviral
CC(=O)OC1(C(F)(F)F)Oc2ccccc2NC1=O (configuration not stated)	i
CC(C)(C)NC(=O)C(c1ccco1)N(C(=O)Cn1nnc(-c2ccc(F)cc2)n1)c1ccccc1F (configuration not stated)	i
O=c1cc[nH]c2c(C(F)(F)F)cccc12	0.4
O=S(=O)(/N=C(\c1ccccc1)N1CCOCC1)c1cccs1	i
COc1cccc(-c2nc(CS(=O)(=O)CC(=O)Nc3c(C)cccc3C)c(C)o2)c1	0.9
N#Cc1nc(-c2ccccc2Cl)oc1NCC1CCCO1 (configuration not stated)	0.8
NS(=O)(=O)c1ccc(CCNC(=O)c2cncc(Br)c2)cc1	i
CC(=NCCN1CCN(C(=S)Nc2ccccc2)CC1)C1=C(O)CC(C)(C)CC1=O	i
CCN(C(=O)COc1ncnc2ccc(Br)cc12)C1CCS(=O)(=O)C1 (configuration not stated)	0.4
N#Cc1nc(COc2ccc(F)cc2)oc1NCCN1CCOCC1	i
Cc1cc(C)nc(N2CCCC(C(=O)NC(C)CCc3ccco3)C2)n1 (configuration not stated)	0.5
NS(=O)(=O)c1ccc(Nc2nc(-c3ccc4ccccc4c3)cs2)cc1	1.2
CC(C)C(=O)c1cn(CC(=O)NCC2CCCO2)c2ccccc12 (configuration not stated)	0.5
O=C(NC1CCCCC1)C(c1ccc(F)cc1)N(C(=O)Cc1ccsc1)c1ccc(F)cc1 (configuration not stated)	i
c1cc(CSc2nnc(-c3ccc4c(c3)OCO4)o2)ccn1	i
Cc1cccc(N2C(=S)N=C(Nc3c(C)cccc3C)C23CCOC(C)(C)C3)c1 (configuration not stated)	i
COc1ccc(C(=O)N[C@H]2COC(C)(C)O[C@H]2c2ccccc2)cc1	0.0
Cc1ccc(CN(C#N)c2nc(C)cc(C)n2)cc1	i
CCC(C(=O)Nc1nnc(-c2ccco2)s1)c1ccccc1 (configuration not stated)	i
Cc1cccc(-c2noc(CN(C(=O)C34CC5CC(CC(C5)C3)C4)C(C)C)n2)c1	1.2
O=C(CSc1nc2ccccc2o1)N1CCN(c2ccc(Cl)cc2)CC1	0.8
CCCN1C=CC(=C2C(=O)c3ccccc3C2=O)C=C1	i
COC(=O)c1ccc(CN(c2ccc(C)cc2)S(=O)(=O)c2ccc3c(c2)OCCO3)o1	i
O=C(NCCNS(=O)(=O)c1ccccc1)N1CCOCC1	i
CCCCn1c(=NC(=O)c2ccco2)c(C(=O)OCC)cc2c(=O)n3ccccc3nc21	2.9
Additional results follow.
SMILES	H5N1 antiviral
CN(O)/C=c1/ccc2c(n1)C(=O)C=CC=2	5.0
Cc1cccc(-n2ncc3c(NCCN4CCOCC4)ncnc32)c1	i
FC(F)Sc1ccc(NC(=S)NC2CCC(NC(=S)Nc3ccc(SC(F)F)cc3)CC2)cc1 (configuration not stated)	i
COc1ccccc1CN(C(=O)Cc1cccs1)C(C(=O)NC1CCCC1)c1ccncc1 (configuration not stated)	0.2
Cc1cccc(N2C(=O)C3C(c4ccccc4)OC4(C(=O)c5ccccc5C4=O)C3C2=O)c1 (configuration not stated)	0.3
COC(=O)c1cccc(C(=O)Nc2ccc(F)cc2)n1	i
COc1ccc(S(=O)(=O)N(CC(=O)Nc2cc(C)on2)Cc2ccccc2)cc1	0.7
Nc1nc2ccc(S(=O)(=O)c3ccc4nc(N)sc4c3)cc2s1	i
CCSc1ncnc2sc3c(c12)CCC3	i
Cc1ccccc1CN1CCNC(=O)C1CC(=O)O (configuration not stated)	1.4
CN(Cc1ccccc1)C(=O)CCC(=O)N(C)Cc1ccccc1	1.3
CC1(C)CC(=O)C2=C(C1)OC1=C(C(=O)CC(C)(C)C1)C2c1ccccc1	0.3
O/N=C/c1cc(Br)ccc1OCc1cccc(F)c1	i
Cc1c(CN(C)C(=O)c2sc3cc(Cl)ccc3c2Cl)cnn1C	2.0
CCN(C)c1ccc(/C=N\n2nnnc2N)cc1	2.1
COC(=O)c1sc(S(=O)(=O)NCc2cccs2)c(C(=O)OC)c1C	1.4
Cc1sc2ncn(CC(=O)NCCc3ccccc3)c(=O)c2c1C	i
Cc1nc2ncnn2c(C)c1Cc1c(Cl)cccc1Cl	1.3
CCOC(=O)c1[nH]c(=O)[nH]c1CSCCO	i
CN1C(=O)/C(=C2/C=CC=CN2C)OC1=S	0.2
COCCn1c(C2CCCCC2)nc2sc3ccccc3c(=O)c2c1=O	1.6
Oc1ccc(C2NCc3ccccc3-n3cccc32)cc1Cl (configuration not stated)	i
CCN(CC)c1ccc(C(=O)Nc2cccc(F)c2)cc1	1.0
CCCn1c(N2CCN(S(=O)(=O)Cc3ccccc3)CC2)nc2ccccc21	i
NC(=O)c1cc(N2C(=O)C3CC=CCC3C2=O)ccc1N1CCCCC1 (configuration not stated)	1.0
Following part.
SMILES	H5N1 antiviral
Cc1ccc(NC(=O)CSC2=C(C#N)C(c3ccc4c(c3)OCO4)CC(=O)N2)cc1C (configuration not stated)	3.8
Cc1cc(C(=O)Nc2ccc(C(=O)O)cc2)c(-c2ccccc2)o1	i
O=[N+]([O-])c1cccc(C(=Nc2cccc(Cl)c2)NO)c1	0.3
CC(C)CNS(=O)(=O)c1ccc(CCC(=O)NCc2ccco2)cc1	0.2
O=C(Nc1ccc(Br)c(Cl)c1)C1CC1	2.6
CCCCC1CC(CSC(=N)N)OC1=O (configuration not stated)	1.0
Cc1ccccc1Cn1nc(C)c(NC(=O)c2noc3c2CCCC3)c1C	0.3
Cc1ccc(Cn2c(SCC(=O)NCC3CCCO3)nc3c(sc4ccccc43)c2=O)cc1 (configuration not stated)	i
CCn1c(SCC(=O)Nc2ccc3c(c2)OCCO3)nc2c(c1=O)SC(C)C2 (configuration not stated)	0.8
COc1cccc(N2C(=O)C(CC(=O)Nc3ccccc3)N(C3CCCCC3)C2=O)c1 (configuration not stated)	i
CC(C)c1ccc(-c2cc(C(=O)N3N=C(C(F)F)CC3(O)C(F)F)c3ccccc3n2)cc1 (configuration not stated)	i
Cc1ccccc1Cn1nc(C)c(NC(=O)c2cc3nc(-c4ccco4)cc(C(F)(F)F)n3n2)c1C	2.1
O=C(CCCn1c(=S)[nH]c2ccccc2c1=O)NC1CCCC1	i
Cc1ccc(CNc2nc3ccccc3s2)s1	1.5
CCCn1c(SCC(=O)N2CCCC2)nc2c1c(=O)n(C)c(=O)n2C	1.2
CN(C)c1ccnc(Oc2ccccc2)c1C#N	i
CCOC(=O)Cn1nc(-c2ccc(C)cc2)ccc1=O	0.6
Cc1ccc(C2C(=O)N(C3CCCC3)CC(=O)N2C2CCCCC2)cc1 (configuration not stated)	i
c1nc2sc3c(c2c2nnnn12)CCCC3	0.9
O=C(C1CCC(=O)N1C1CCCCC1)N1CCC2(CC1)OCCO2 (configuration not stated)	0.1
CC[n+]1c(/C=C/C=C/N(C(C)=O)c2ccccc2)sc2ccccc21	i
C=CCn1c(=O)c(C(=O)Nc2ccccc2O)c(O)c2ccccc21	i
O=C(c1ccc(S(=O)(=O)N2CCOCC2)cc1)N1CCN(c2ccccc2)CC1	0.1
Cc1ccc(S(=O)(=O)N2CCCCC2)cc1C(=O)Nc1ccc(N2CCOCC2)cc1	0.5
CCn1c(C)c(/C=N/Nc2nc3ccccc3s2)c2ccccc21	i
c1cncc(-c2noc(-c3ccco3)n2)c1	2.1
CCCCOC(=O)C1=C(C)Nc2nnnn2C1c1ccccc1Cl (configuration not stated)	0.8
Cc1ccn(C(=O)c2ccc(NC(=O)C3CCCCC3)cc2)n1	i
CCN(C(=O)Cc1cccs1)c1nnc(-c2cc(OC)c(OC)c(OC)c2)s1	0.7

Source: PubChem BioAssay (SRMLSC)
